AmpC nodet inh – blocks E. coli AmpC beta-lactamase in absence of detergent. P00811. AmpC nitrocefin hydrolysis, absorbance 480 nm, no detergent; potencies from a single point are estimates. Potency, µM (top dose mostly 28.7 µM), without a hit: at the top dose activity change, negative = inhibition. actives 1.8% (n = 71,000). AID 585; active = falling curve, for most hits resting on a single point; inconclusive = weak or doubtful change; inactive = flat or rising curve; note: % of control where 0% means no effect; about half of the hits show no inhibition at the top dose; a quarter of the inactives give rising signals
Target sequence (P00811 whole entry, looked up): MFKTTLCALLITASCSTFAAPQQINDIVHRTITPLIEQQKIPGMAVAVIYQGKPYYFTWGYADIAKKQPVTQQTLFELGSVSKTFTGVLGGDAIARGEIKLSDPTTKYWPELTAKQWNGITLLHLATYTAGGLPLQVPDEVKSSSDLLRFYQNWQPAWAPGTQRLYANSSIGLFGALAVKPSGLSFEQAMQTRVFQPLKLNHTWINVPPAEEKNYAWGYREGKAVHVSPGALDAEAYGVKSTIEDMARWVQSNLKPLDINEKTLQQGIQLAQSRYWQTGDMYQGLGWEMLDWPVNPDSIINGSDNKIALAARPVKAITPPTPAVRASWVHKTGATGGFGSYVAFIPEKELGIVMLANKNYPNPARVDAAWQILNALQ
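Enzyme, pH 7.0 phosphate. Compound titrations were pre-incubated with AmpC for 15 min at room temperature before nitrocefin (stock 800 uM) addition; product formation was recorded at 480 nm every 20 s for 4 min.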
An asterisk follows results filed as active; ? = inconclusive; [ ] = remark or other dose. Potency is the fitted concentration of half-maximal effect. These rows are one share of the data; the hit share may differ from the screen's.

Compound | AmpC nodet inh
COc1ccc(CNC(=O)COC(=O)c2n[nH]c3ccccc23)cc1 | -3%
CC1=C(\C=C/C(C)=C/C=C\C(C)=C\C(=O)Nc2ccc(O)cc2)C(C)(C)CCC1 | 6%
Cc1cc(C(N)=O)c2ccccc2n1 | -4%
C=C(C)c1cccc(C(C)(C)NC(=O)NCC2CCCO2)c1 (centres undefined) | 26%
COC(=O)c1sccc1NC(=O)c1csc(C)c1 | 2%
O=c1cc(NC2CCCCCC2)[nH]c(=O)[nH]1 | 5%
CNCC(O)c1cccc(OC(=O)c2ccccc2C)c1 (centres undefined) | 13%
COCCCNC(=O)C(Cc1ccccc1)NS(=O)(=O)c1ccc2c(c1)c(=O)n(C)c(=O)n2C (centres undefined) | -5%

The list goes on (7 carried over from the part before).
Compound | AmpC nodet inh
CC1=C(\C=C/C(C)=C/C=C\C(C)=C\C(=O)Nc2ccc(O)cc2)C(C)(C)CCC1 | 6%
Cc1cc(C(N)=O)c2ccccc2n1 | -4%
C=C(C)c1cccc(C(C)(C)NC(=O)NCC2CCCO2)c1 (centres undefined) | 26%
COC(=O)c1sccc1NC(=O)c1csc(C)c1 | 2%
O=c1cc(NC2CCCCCC2)[nH]c(=O)[nH]1 | 5%
CNCC(O)c1cccc(OC(=O)c2ccccc2C)c1 (centres undefined) | 13%
COCCCNC(=O)C(Cc1ccccc1)NS(=O)(=O)c1ccc2c(c1)c(=O)n(C)c(=O)n2C (centres undefined) | -5%
CCOc1ccc(C(C)=O)cc1COC(=O)C1=COCCO1 | 36%
O=C(Nc1ccccc1O)c1cc(S(=O)(=O)N2CCOCC2)c(Cl)cc1Cl | -8%
CCOC(=O)c1ccc(NC(=O)CSc2nnc(-c3cccs3)n2C)cc1 | -8%
COc1ccccc1NC=C1C(=O)OC2(CCCCC2)OC1=O | 30%
N#C/C(=C\c1ccc(O)c(O)c1)C(=O)Nc1ccccc1 | ?
CC(C)=CCCC(C)CN(C)CCc1ccccn1 (centres undefined) | 8%
Cc1c(C(=O)N2CCOCC2)[nH]c2c1C(=O)CC(c1ccc(Cl)cc1)C2 (centres undefined) | 55%
Cc1ccc(C(=O)Nc2nc3c(s2)CCCC3)o1 | -11%
Cc1ccc(C)c2[nH]c(=O)c(CN(Cc3nnnn3C3CCCCC3)CC3CCCO3)cc12 (centres undefined) | 130%
C=CCOc1ccc(CN(C)CC(=O)N(CC(C)C)c2c(N)n(CC(C)C)c(=O)[nH]c2=O)cc1 | 4%
COc1cccc(-c2cc(C(F)(F)F)nc(NCc3ccco3)n2)c1 | -10%
O=C(Cc1cn2ccsc2n1)NCCc1ccc(F)cc1 | -2%
CCc1ccc(OCC(=O)NCCN(C)C)c(Br)c1 | 10%
O=C(Nc1ccc2nc3n(c(=O)c2c1)CCCCC3)c1ccccn1 | 32%
O=c1c(-c2cc(F)cc(F)c2)nc2cnc(N3CCNCC3)nc2n1CCc1ccccc1 | 46%
Nc1nc(N)c2[nH]cnc2n1 (tested in a mixture with another compound) | -2%[5.75 µM]
CCOc1ccccc1C(=O)N(C)Cc1cc2cc(OC)ccc2[nH]c1=O | 21%
COc1ccccc1OCC(=O)c1[nH]c(C)c(C(C)=O)c1C | 7%
COc1ccc2[nH]c(C)c(CCN3C(=O)C4CC=CCC4C3=O)c2c1 (centres undefined) | 13%
O=C(Nc1ccccc1)N1CCC2(CC1)CCN(C(=O)c1ccco1)CC2 | 32%
COC(=O)[C@@]1(Cc2ccc(F)cc2)[C@H]2c3cc(C(=O)N4CCCC4)n(Cc4cccc5ccccc45)c3C[C@H]2CN1C(=O)c1ccccc1 | 74%
O=C1CC(N2CCN(Cc3ccccc3)CC2)C(=O)N1CCc1ccccc1 (centres undefined) | 78%
Cn1c(SCc2c(Cl)cccc2Cl)nnc1-c1cccs1 | -6%
CNS(=O)(=O)c1ccc(Oc2ccc(S(=O)(=O)NC)cc2)cc1 | 13%
CC(C)(C)NC(=O)Cn1nnc(-c2cccs2)n1 | 28%
CCCc1nc(SCC(=O)N2CCCc3ccccc32)c2c(=O)n(C)c(=O)n(C)c2n1 | 9%
COc1cccc(-c2cc3nc4c(c(N5CCC6(CC5)OCCO6)n3n2)CCCC4)c1 | 79%
CC(=O)Nc1ccc(S(=O)(=O)c2ccc(N)cc2)cc1 | -5%
CCC(C(=O)OC)n1cnc2c(cnn2-c2ccc(Cl)cc2)c1=O (centres undefined) | 1%
COc1cc(OC)c(OC)cc1CN(C)CCc1ccccn1 | 21%
O=C(CSc1nnnn1C1CCCCC1)Nc1cccc(NC(=O)c2ccco2)c1 | -4%
COc1ccc(N2CCN(c3nc4c(c(=O)n(C)c(=O)n4C)n3CCCc3ccccc3)CC2)cc1 | 93%

Part of the list above in order of molar mass, lowest first.
Compound | AmpC nodet inh
CC(=O)Nc1ccc(S(=O)(=O)c2ccc(N)cc2)cc1 | -5%
COc1cc(OC)c(OC)cc1CN(C)CCc1ccccn1 | 21%
CCCc1nc(SCC(=O)N2CCCc3ccccc32)c2c(=O)n(C)c(=O)n(C)c2n1 | 9%

Following part:
Compound | AmpC nodet inh
Cc1noc(C)c1COC(=O)CN(C)S(=O)(=O)c1ccc(Cl)cc1 | 16%
Cc1noc(C)c1-c1nc(NCCN2CCOCC2)c2ccccc2n1 | 34%
COc1cccc(C(=O)COC(=O)C(C)N2C(=O)c3ccccc3C2=O)c1 (centres undefined) | 20%
O=C(c1ccc(Br)o1)N1CCN(c2ccc(F)cc2)CC1 | 8%
CC(=O)N1CN(C2CCS(=O)(=O)C2)Cc2c1sc1c2CCCC1 (centres undefined) | 4%
CNC(=O)CSc1nnc(-c2cccc(S(=O)(=O)N3CCOCC3)c2)n1-c1ccc(F)cc1 | 85%
Cc1cc(NC(=O)c2cnn3c(C(F)(F)F)cc(-c4ccccc4)nc23)no1 | 97%
O=C(c1ccc2nccnc2c1)N1CCN(Cc2ccc3c(c2)OCO3)CC1 | 20%
CN1C[C@@H](CNC(=O)OCc2ccccc2)C[C@H]2c3cccc4c3c(cn4C)C[C@@H]21 | 73%
c1csc(CNc2ncnc3nc[nH]c23)c1 | -4%
COC(=O)c1cc2oc3ccccc3c2n1CC(=O)Nc1ccccc1OC | -4%
O=Cc1ccc(Cl)c(Cl)c1 | 4%
COc1ccc(S(=O)(=O)CCC(=O)NCCc2ccc(S(N)(=O)=O)cc2)cc1 | -5%
CCN(CC)CCNC(=O)c1ccc(N)cc1 | 8%[12.8 µM]
Cn1c2c(c(=O)n(C)c1=O)C(c1cc3c(cc1Br)OCO3)CC(=O)N2 (centres undefined) | -12%
O=S(=O)(c1ccccc1)N1CCC2(CCCN(C(c3ccccc3)c3ccccc3)C2)CC1 | 3%
Cc1cccc(C)c1Nc1nnc(SCC(=O)NCc2ccco2)s1 | -10%
O=C(COc1ccc(Cl)cc1)NCc1nnc(SCC(=O)Nc2ccc3c(c2)OCCO3)o1 | 27%
Cc1cccc2cc(CN(CCN3CCOCC3)C(=O)NCc3ccccc3)c(=O)[nH]c12 | 88%
O=C(O)c1ccc2c(c1)C(=O)N(CCC1=CCCCC1)C2=O | -12%
Cc1cc(O)c(C(C)C)cc1NC(=O)Cn1nc(C)c2ccccc2c1=O | 31%
CN1CCCC2(CCN(C(=O)c3ccco3)CC2)C1 | 6%
COc1ccc(CNc2ncncc2-c2c(C)noc2C)c(OC)c1 | 15%
Cc1occc1-c1nnc(SCC(=O)NC(C)(C)C)n1C(C)c1ccccc1 (centres undefined) | 84%

Continued.
canonical_smiles	AmpC nodet inh
N#CCCCSc1ncccc1-c1nc2ccccc2[nH]1	-1%
O=C(NC1CCCC1)C(c1ccncc1)N(Cc1cccs1)C(=O)c1csnn1 (centres undefined)	25%
Fc1ccc(CN(C2=NCCN2)c2c(Cl)cccc2Cl)cc1	9%
C=C1[C@@H]2CC[C@H]3[C@@]4(C)C[C@@H](O[C@@H]5O[C@H](CO)[C@H](OS(=O)(=O)O)[C@@H](OS(=O)(=O)O)[C@@H]5OC(=O)CC(C)C)C[C@@H](C(=O)O)[C@H]4CC[C@@]3(C2)[C@H]1O	-2%[12.8 µM]
O=C(c1noc2c1CCCC2)N1CCN(c2ccccc2)CC1	16%
CSc1nc(C)cc(Nc2ccc(O)c(CN3CCCCC3)c2)n1	0%[5.75 µM]
O=C(O)C1(Nc2ccc(Cl)cc2)CCCC1	-5%[5.75 µM]
O=C(COc1ccccc1)N1CCN(c2ncnc3c2cnn3-c2ccccc2)CC1	74%
C[C@H](C(=O)O)c1n[nH]c(=O)c2ccccc12	5%
Clc1ccccc1-c1nccc(NCCN2CCOCC2)n1	15%
c1ccc2c(Cn3ccnc3)c[nH]c2c1	1%
COCC(=O)N1CCC2(CC1)CN(C(=O)Nc1ccc(OC)cc1)C2	-5%
NC(=O)c1cc2n(n1)C(C(F)(F)F)CC(c1ccco1)N2 (centres undefined)	3%
COc1cccc(C2CC(c3ccc(Cl)cc3Cl)n3nc(N)nc3N2)c1 (centres undefined)	104%
COCCn1c(=O)c(-c2ccc(OC)cc2)nc2cnc(N3CCNCC3)nc21	44%
Cc1nc(=S)n(-c2ccccc2)[nH]1	1%
Cn1nccc1C(=O)c1ccc(Cl)cc1	14%
CCOc1ccc(NC(=O)CN2CCN(CC(=O)Nc3cccc(F)c3)CC2)cc1	82%
COc1ccc(OCc2nnc3n2N=C(c2ccc(C)cc2)CS3)cc1	45%
CC1C(=O)OC2C(O)C34C5CC(C(C)(C)C)C36C(OC(=O)C6O)OC4(C(=O)O5)C12O (centres undefined)	8%
CCC(C)[C@H](NC(=O)NC1CC1)C(=O)O (some centres undefined)	-8%
Cc1nc(-c2ccccc2O)n(S(=O)(=O)N(C)C)n1	1%
CC(=O)c1cccc(NC(=O)CN(Cc2ccccc2)S(C)(=O)=O)c1	-2%
COc1ccc(C(C(C(=O)c2ccco2)N2CCOCC2)N2CCOCC2)cc1 (centres undefined)	26%
COc1ccc(NC(=O)CSc2nccc(C)n2)cc1	3%
COC(=O)c1sc(N)c(C(=O)OC)c1COC(=O)C1CC(=O)N(Cc2ccco2)C1 (centres undefined)	79%
COC(=O)CC1Sc2ccccc2NC1=O (centres undefined)	-4%
CN(C)C(=O)CSc1nnc(-c2cc(-c3cccs3)nc3ccccc23)o1	107%
CC(=O)c1cc(C)ccc1OC(=O)c1cccc2nc(C)oc12	55%
CCCCOCCCn1c(-c2ccco2)nc2nc3ccccc3nc21	57%
COc1ccc(C(=O)NCc2n[nH]c(=S)n2-c2ccccc2)cc1OC	-6%
CC(=O)Nn1c(COc2ccccc2C)nc2ccccc2c1=O	7%
Cc1ccc(/C=N/n2cnc3sc4c(c3c2=O)CCCC4)o1	-10%
O=C(Cn1nnc(-c2ccncc2)n1)Nc1ccc2c(c1)CCC2	-10%
COC(=O)[C@H](C)NC(=O)Nc1ccc(Oc2ccccc2)cc1	-9%
CN(C)CCOC(=O)c1ccc(N)cc1	2%[5.75 µM]
COc1ccc(-c2noc(CCC(=O)Nc3ccc4c(c3)OCCO4)n2)cc1	-5%
COc1ccc(C2=NOC(Cn3c(Cc4ccc(Cl)cc4)nc4c3c(=O)n(C)c(=O)n4C)C2)cc1 (centres undefined)	138%
C#C[C@@]1(O)CC[C@@H]2[C@@H]3CCC4=C(CCC(=O)C4)[C@H]3CC[C@]21C	10%[12.8 µM]
CCOC(=O)N1CCC(NC(=O)c2cc3c(-c4ccccc4F)nn(C)c3s2)CC1	20%
O=C(CN1CCN(C(=O)c2cccc(F)c2)CC1)NC1CCCCC1	17%
CS(=O)(=O)N(CC(=O)Nc1ccc2c(c1)OCO2)Cc1ccccc1	2%
COc1ccc(-c2c(C)nn3c(N4CCC(C(=O)NCCN(C)C)CC4)cc(C)nc23)cc1OC	87%
Cc1ccc(SC/C(O)=C(\C#N)c2nc3ccccc3s2)cc1	-18%
O=C(Oc1ccccc1)N1CCC[C@@]2(CCN(Cc3cc(C(F)(F)F)cc(C(F)(F)F)c3)C2)C1	87%
CS/C(=N\S(=O)(=O)c1ccc(N)cc1)NS(=O)(=O)c1cccs1	-19%
CC1CC(C(F)(F)C(F)(F)F)n2nc(C(=O)O)cc2N1 (centres undefined)	-7%
CCCN1CCCc2cc(CN)ccc21	12%
COCCCNC(=O)C1CCCCN1S(=O)(=O)c1ccc(F)cc1 (centres undefined)	8%
Cc1ccc(SC(C)C(=O)Nc2ncn[nH]2)cc1 (centres undefined)	-1%

Additional entries
canonical_smiles	AmpC nodet inh
C=C[C@]1(C)C[C@H](OC(=O)CO)[C@]2(C)C3C(=O)CC[C@]3(CC[C@H]2C)[C@H](C)[C@H]1O (some centres undefined)	3%[5.75 µM]
CC(C)(C)n1nnnc1CN1CCC(NC(=O)NC2CCCCC2)CC1	-4%
O=C1CC(=O)N(CCc2ccccc2)C(=O)N1CCc1ccccc1	-4%
C[C@H](NCCC(c1ccccc1)c1ccccc1)c1ccccc1	-7%[12.8 µM]
COCC(=O)/C=C1\Sc2ccccc2N1C	12%
CC(C)(C)NC(=O)CN(Cc1cccnc1)C(=O)c1csnn1	-11%
OC(CNc1nc2ccccc2s1)c1ccccc1 (centres undefined)	-7%
CCCn1c(=N)c(C(=O)NCc2ccc3c(c2)OCO3)cc2c(=O)n3cccc(C)c3nc21	63%
Cc1cc(C)nc(N2CCCC(C(=O)NCCc3cccc(F)c3)C2)n1 (centres undefined)	21%
CCOP(=S)(OCC)c1ccc(N(C)C)cc1	3%
Cc1oc2ccc(OC(=O)N(C)C)cc2c1C(=O)OC(C)C	65%
CCCC(=O)Nc1cc(C)c(NC(=O)c2ccccn2)cn1	-8%
CC(NC(=O)Cc1cccs1)C(c1cccs1)N1CCN(c2ccccc2F)CC1 (centres undefined)	-6%
Cc1cc(NS(=O)(=O)c2ccccc2)c(C)c(Cl)c1O	-11%
